Screening results deposited in PubChem by several laboratories.
GALR2 ag – agonists of human galanin receptor 2 (GALR2); 140,000 compounds, 0.48% hits; O43603; activation, %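 (tested at 5 µM)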; GALR2-expressing cells, agonist activation read-out;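 active = above mean plus 3 SD of all compounds, about 5% in these data, not always enough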;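 note: 0% = vehicle buffer wells and 100% = reference agonist at full effect; tested in CHO reporter cells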
Target sequence (O43603 whole entry, looked up): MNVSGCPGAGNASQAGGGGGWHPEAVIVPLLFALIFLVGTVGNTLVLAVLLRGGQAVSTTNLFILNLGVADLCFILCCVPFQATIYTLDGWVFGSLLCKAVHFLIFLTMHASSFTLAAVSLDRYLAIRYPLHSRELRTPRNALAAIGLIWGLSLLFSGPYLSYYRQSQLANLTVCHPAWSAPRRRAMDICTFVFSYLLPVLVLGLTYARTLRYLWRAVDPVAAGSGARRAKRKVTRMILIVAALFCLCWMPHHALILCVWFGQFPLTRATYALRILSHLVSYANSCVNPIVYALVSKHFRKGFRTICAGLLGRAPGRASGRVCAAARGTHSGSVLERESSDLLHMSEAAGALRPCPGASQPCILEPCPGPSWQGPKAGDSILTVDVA
Insulin prom inh – TRM-6 insulin promoter activity inhibition. TRM-6 cells (human fetal islet line), insulin promoter-eGFP reporter, imaging; reporter expression induced with tamoxifen. inhibition, % at 2 µM. 130,000 compounds, 0.9% hits;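 active = inhibition above the mean plus 3 SD, with well images judged a real hit on visual review, cut at about 60% in these data, passing the limit was not always enough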
HSV augment – HSV replication enhancement; HSV replication augmentation in cells, fold increase; maximum fold increase; AID 1956; 220,000 compounds, 0.005% hits;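 active = peak rise of 1.5-fold or more in the series; tested in PC3 cells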;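 note: first round at 10 µM; read as green reporter fluorescence; hits show the peak of a series up to 25 µM; 1 = signal of infected wells without compound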
PKD1 kinase inh – PKD1 (human) kinase inhibition; PKD1 kinase fluorescence polarization assay; inhibition, %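 (about 10 µM by stock and volumes)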; Q15139; 200,000 compounds, 0.056% hits;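 active = inhibition of 50% or more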;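 note: controls were vehicle for no effect and a reference inhibitor for full effect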
RGS16-Gao HTS – regulators of human RGS16-Galphao interaction; bead-based flow cytometry RGS16-Galphao binding, fluorescence; actives lie on both sides; binding response (% of control), % at 10 µM; 220,000 compounds, 0.38% hits; AID 1441;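 active = below 25% or above 175%, edge rows of some plates excepted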;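 note: Galphao activated by GDP with aluminum fluoride before binding; 100% = wells without compound and 0% = beads without RGS; some results beyond the cut were filed as inactive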
Target sequence (O15492 whole entry, looked up): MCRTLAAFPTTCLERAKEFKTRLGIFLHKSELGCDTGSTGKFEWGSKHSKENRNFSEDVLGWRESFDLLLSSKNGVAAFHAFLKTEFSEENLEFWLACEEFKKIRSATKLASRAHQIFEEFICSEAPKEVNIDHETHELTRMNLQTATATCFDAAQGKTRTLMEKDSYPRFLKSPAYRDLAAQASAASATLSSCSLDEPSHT
Target sequence (P09471 whole entry, looked up): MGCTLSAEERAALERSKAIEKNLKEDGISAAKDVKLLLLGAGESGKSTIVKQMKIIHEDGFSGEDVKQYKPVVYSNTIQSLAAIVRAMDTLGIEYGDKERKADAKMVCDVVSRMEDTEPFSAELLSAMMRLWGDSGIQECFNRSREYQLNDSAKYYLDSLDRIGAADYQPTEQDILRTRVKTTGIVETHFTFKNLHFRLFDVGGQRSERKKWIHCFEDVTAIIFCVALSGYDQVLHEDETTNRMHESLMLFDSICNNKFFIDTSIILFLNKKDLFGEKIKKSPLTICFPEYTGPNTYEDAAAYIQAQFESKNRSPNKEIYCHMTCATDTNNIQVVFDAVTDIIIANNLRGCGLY
Insulin prom inh cell count – recorded beside Insulin prom inh, whose call it bears; normalized cell count, %; measured here: cell count, toxicity; reference of the scale not given here;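 cells exposed to compound for 48 h; stained nuclei by imaging scaled within each plate; lower means fewer cells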
HSV augment primary fold – further read-out of HSV augment, marked with its call; fold increase; compound at 10 µM; measured here: primary screen fold increase 10 uM; tested in PC3 cells;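 GFP signal in the first replicate; 1 = infected wells without compound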
* = called active by the depositor.

Screening CCN(CC)S(=O)(=O)c1cccc(C(=O)N/N=C/c2ccccc2OCC(=O)O)c1 returned HSV augment inactive, PKD1 kinase inh -5, RGS16-Gao HTS 103 and HSV augment primary fold 0.94.
For CC#CCN1c2ccccc2[C@]23C[C@@H](C(=O)OC)N(C(=O)OCC)C2=NC(C(=O)OC)=C(C(=O)OC)[C@H]13 the results were HSV augment inactive, RGS16-Gao HTS 99 and HSV augment primary fold 0.8.
O=C(CSc1ncccn1)Nc1ccccc1 was read as GALR2 ag -2.2, Insulin prom inh 12, HSV augment inactive, PKD1 kinase inh -13, RGS16-Gao HTS 106, Insulin prom inh cell count 111 and HSV augment primary fold 0.74.
CC(C)(C)Nc1nc2ccc([N+](=O)[O-])cc2o1 was read as HSV augment inactive, RGS16-Gao HTS 109 and HSV augment primary fold 1.
For CCS(=O)(=O)NCc1csc(-c2ccccc2)n1 the results were GALR2 ag -0.6, Insulin prom inh 29, HSV augment inactive, PKD1 kinase inh -5, RGS16-Gao HTS 105, Insulin prom inh cell count 144 and HSV augment primary fold 1.
`COc1cccc(Cn2nnc(C(=O)NCc3ccccc3Cl)c2N)c1` gave GALR2 ag -1.3, HSV augment inactive, PKD1 kinase inh -6, RGS16-Gao HTS 102 and HSV augment primary fold 0.87.
Screening OC(COCC1CC=CCC1)Cn1cnc2ccccc21 (configuration not stated) returned GALR2 ag -0.7, Insulin prom inh 41, HSV augment inactive, PKD1 kinase inh 2, RGS16-Gao HTS 52, Insulin prom inh cell count 63 and HSV augment primary fold 0.59.
For Cc1ccc(-n2nc3c(Cl)nnc(C)c3c2C)cc1 the results were GALR2 ag -1.7, Insulin prom inh -8, HSV augment inactive, PKD1 kinase inh -5, RGS16-Gao HTS 76, Insulin prom inh cell count 42 and HSV augment primary fold 0.99.
Cc1c(NC(=O)c2cnn3c2NC(c2ccco2)CC3C(F)(F)F)c(=O)n(-c2ccccc2)n1C (configuration not stated) was read as GALR2 ag -2.8, Insulin prom inh -74, HSV augment inactive, PKD1 kinase inh -3, RGS16-Gao HTS 105, Insulin prom inh cell count 106 and HSV augment primary fold 0.91.
For COc1ccc(C(CNC(=O)c2cc(SC)ccc2Cl)N(C)C)cc1 (configuration not stated) the results were HSV augment inactive, RGS16-Gao HTS 106 and HSV augment primary fold 0.95.
`Cc1ccc(S(=O)(=O)N2CCN(C(C)C)CC2)cc1` gave HSV augment inactive, PKD1 kinase inh 3, RGS16-Gao HTS 101 and HSV augment primary fold 1.4.
For CCCn1c(NCc2cccc(OC)c2O)nc2ccccc21 the results were GALR2 ag -1.8, Insulin prom inh -311, HSV augment inactive, PKD1 kinase inh 1, RGS16-Gao HTS 136, Insulin prom inh cell count 57 and HSV augment primary fold 0.92.
For Fc1ccc(NC2=NCCCCC2)cc1 the results were Insulin prom inh 27, HSV augment inactive, PKD1 kinase inh -1, RGS16-Gao HTS 42, Insulin prom inh cell count 61 and HSV augment primary fold 1.
Screening O=C(OC1CCCCC1)c1ccc2c(c1)C1C=CCC1C(C(=O)O)N2 (configuration not stated) returned GALR2 ag -1.5, PKD1 kinase inh -6 and RGS16-Gao HTS 84.
For CC1(C)CC(=O)C2=C(C1)Nc1ccccc1NC2c1cccnc1 (configuration not stated) the results were HSV augment inactive, RGS16-Gao HTS 198 and HSV augment primary fold 0.89.
`CCCNC(=O)c1ccc(C2SCC(=O)N2CCc2ccccc2)cc1` (configuration not stated) gave GALR2 ag 0.3, HSV augment inactive, PKD1 kinase inh 6, RGS16-Gao HTS 89 and HSV augment primary fold 1.1.
`CCCCNc1ccc2nsnc2c1[N+](=O)[O-]` gave GALR2 ag -0.7, Insulin prom inh -94, HSV augment inactive, PKD1 kinase inh -5, RGS16-Gao HTS 104, Insulin prom inh cell count 155 and HSV augment primary fold 0.91.
For COc1ccc2nc(C)cc(SCC(=O)N3CCCCC3)c2c1 the results were HSV augment inactive, PKD1 kinase inh -6, RGS16-Gao HTS 105 and HSV augment primary fold 0.88.
Screening C=CCNc1nnc(Sc2ncccc2[N+](=O)[O-])s1 returned Insulin prom inh 93*, PKD1 kinase inh -8, RGS16-Gao HTS 73 and Insulin prom inh cell count 45*.
For O=C(Nc1ccon1)c1cccc(S(=O)(=O)N2CCCCC2)c1 the results were HSV augment inactive, PKD1 kinase inh 1, RGS16-Gao HTS 105 and HSV augment primary fold 1.
Screening S=C(NC1CCCCCC1)NC1CCCC1 returned HSV augment inactive, PKD1 kinase inh 13, RGS16-Gao HTS 103 and HSV augment primary fold 0.88.
O=C(/C=C/c1ccccc1)NC(=S)NNS(=O)(=O)c1ccccc1 was read as Insulin prom inh 26, HSV augment inactive, PKD1 kinase inh -2, RGS16-Gao HTS 105, Insulin prom inh cell count 136 and HSV augment primary fold 0.96.
Screening CCOC(=O)N1CCN(C(=O)c2oc3ccc(S(=O)(=O)N4CCCCC4)cc3c2C)CC1 returned GALR2 ag -1.2, HSV augment inactive, PKD1 kinase inh 2, RGS16-Gao HTS 108 and HSV augment primary fold 1.1.
For O=C(c1ccc2c(c1)N(Cc1ccccc1F)C(=O)c1ccccc1S2)N1CCOCC1 the results were HSV augment inactive, RGS16-Gao HTS 89 and HSV augment primary fold 0.96.
`O=C(Nc1nsc(-c2ccccc2)n1)c1ccc(F)cc1` gave Insulin prom inh 15, HSV augment inactive, PKD1 kinase inh 6, RGS16-Gao HTS 96, Insulin prom inh cell count 91 and HSV augment primary fold 1.
For CCNC(=O)CSc1nnc(-c2cccc(S(=O)(=O)N(CC)CC)c2)n1CCc1ccccc1 the results were GALR2 ag -0.1, Insulin prom inh -12, HSV augment inactive, PKD1 kinase inh 0, RGS16-Gao HTS 98, Insulin prom inh cell count 52 and HSV augment primary fold 0.81.
For COc1ccc(C2CC(c3cc(Br)ccc3F)n3nnnc3N2)cc1 (configuration not stated) the results were GALR2 ag -1.7, Insulin prom inh -7, HSV augment inactive, PKD1 kinase inh -6, RGS16-Gao HTS 95, Insulin prom inh cell count 120 and HSV augment primary fold 0.89.
For CC(C)C1N(c2ccccc2)C(N)=C(C#N)C1(C#N)C#N (configuration not stated) the results were GALR2 ag -0.4, HSV augment inactive, PKD1 kinase inh -3, RGS16-Gao HTS 96 and HSV augment primary fold 0.98.
Cc1ccc(S(=O)(=O)N(C)CC(=O)O/N=C(\N)c2cccc([N+](=O)[O-])c2)cc1 was read as GALR2 ag -1.5, Insulin prom inh 3, HSV augment inactive, PKD1 kinase inh -5, RGS16-Gao HTS 100, Insulin prom inh cell count 115 and HSV augment primary fold 0.71.
`O=C(O)c1cccc(NC(=O)c2ccc(S(=O)(=O)c3ccccc3)cc2)c1` gave GALR2 ag -1.7, HSV augment inactive, PKD1 kinase inh 6, RGS16-Gao HTS 188 and HSV augment primary fold 1.1.
Screening CCC1(CC)NC(=O)N(CC(=O)OCC(=O)Nc2cc(C)ccc2C)C1=O returned GALR2 ag 0.9, HSV augment inactive, PKD1 kinase inh -5, RGS16-Gao HTS 104 and HSV augment primary fold 0.92.
For Cc1cc(C)c2c(c1)-c1c(ssc1=S)C(C)(C)N2C(=O)CN1C(=O)c2ccccc2C1=O the results were GALR2 ag -0.2, Insulin prom inh -42, HSV augment inactive, PKD1 kinase inh -9, RGS16-Gao HTS 107, Insulin prom inh cell count 122 and HSV augment primary fold 0.98.
C=CCn1c(=NC(=O)CN2C(=O)CCC2=O)sc2cccc(OC)c21 was read as GALR2 ag -1.1, HSV augment inactive, PKD1 kinase inh 3, RGS16-Gao HTS 120 and HSV augment primary fold 0.99.
`CCC(O)CC(C(=O)NNc1ccccc1)C(=O)NNc1ccccc1` (configuration not stated) gave HSV augment inactive, PKD1 kinase inh 7, RGS16-Gao HTS 99 and HSV augment primary fold 0.89.
`COc1ccc(CN2CCN(Cc3nc4ccccc4s3)CC2CCO)c(C)c1C` (configuration not stated) gave HSV augment inactive, PKD1 kinase inh 5, RGS16-Gao HTS 122 and HSV augment primary fold 0.92.
For Cc1ccccc1/[N+]([O-])=C/c1ccncc1 the results were GALR2 ag -3.1, HSV augment inactive, PKD1 kinase inh 0, RGS16-Gao HTS 101 and HSV augment primary fold 1.
Screening CCC1CCc2c(c3ccccc3[nH]c2=O)O1 (configuration not stated) returned GALR2 ag -1.2, Insulin prom inh -3, PKD1 kinase inh 4, RGS16-Gao HTS 106 and Insulin prom inh cell count 73.
For COCCNc1nc(-c2cc(-c3ccccc3)on2)cc(C(C)C)n1 the results were HSV augment inactive, RGS16-Gao HTS 99 and HSV augment primary fold 0.85.
Cc1c(NC(=O)c2n[nH]c(=O)c3ccccc23)c(=O)n(-c2ccccc2)n1C was read as GALR2 ag -2.9, Insulin prom inh 4, HSV augment inactive, PKD1 kinase inh -4, RGS16-Gao HTS 99, Insulin prom inh cell count 137 and HSV augment primary fold 0.96.
Screening O=C(Cc1cccs1)N/N=C/c1ccc(OCc2ccccc2)cc1 returned GALR2 ag -1.0, Insulin prom inh -14, HSV augment inactive, PKD1 kinase inh 5, RGS16-Gao HTS 104, Insulin prom inh cell count 112 and HSV augment primary fold 0.95.
`CCN(CC)c1ccc(/C=N/NC(=O)c2ccoc2C)cc1` gave HSV augment inactive, RGS16-Gao HTS 98 and HSV augment primary fold 0.94.
O=C(CO)N/N=C/c1ccccc1F was read as GALR2 ag -1.7, HSV augment inactive, PKD1 kinase inh 9, RGS16-Gao HTS 81 and HSV augment primary fold 0.82.
O=C(c1ccc2ccccc2n1)N1CCN(c2ccccc2O)CC1 was read as GALR2 ag 0.7, Insulin prom inh -3, HSV augment inactive, PKD1 kinase inh -1, RGS16-Gao HTS 98, Insulin prom inh cell count 88 and HSV augment primary fold 0.98.
O=C(c1ccco1)N1CCN(c2c(-c3ccccc3)c3cc(Cl)ccc3[nH]c2=O)CC1 was read as GALR2 ag 0.3, Insulin prom inh 25, HSV augment inactive, PKD1 kinase inh 1, RGS16-Gao HTS 102, Insulin prom inh cell count 111 and HSV augment primary fold 0.63.
Screening CC(C)CC(=O)NC(=S)Nc1ccc(CN2CCOCC2)cc1 returned HSV augment inactive, RGS16-Gao HTS 102 and HSV augment primary fold 0.83.
Screening CSc1cccc(NC(=O)Cn2cccc2)c1 returned GALR2 ag 0.6, HSV augment inactive, PKD1 kinase inh -6, RGS16-Gao HTS 106 and HSV augment primary fold 1.
C#CCN(C)CCCOc1ccc(Cl)cc1Cl was read as GALR2 ag -0.8, Insulin prom inh 14, HSV augment inactive, PKD1 kinase inh -6, RGS16-Gao HTS 105, Insulin prom inh cell count 129 and HSV augment primary fold 0.64.
Screening Cc1ccc(C(=O)Nc2ccccc2N2CCN(C(=O)C(C)C)CC2)cc1C returned GALR2 ag -1.1, HSV augment inactive, PKD1 kinase inh -8, RGS16-Gao HTS 102 and HSV augment primary fold 1.
`CCCOC(=O)/C=C/c1c(C)[nH]c(=O)[nH]c1=O` gave GALR2 ag -0.6, Insulin prom inh -33, HSV augment inactive, PKD1 kinase inh 2, RGS16-Gao HTS 80, Insulin prom inh cell count 90 and HSV augment primary fold 1.1.
`CC(C(=O)Nc1ccccc1Sc1ccccc1)N(c1ccccc1)S(C)(=O)=O` (configuration not stated) gave GALR2 ag -3.1, Insulin prom inh -57, HSV augment inactive, PKD1 kinase inh -3, RGS16-Gao HTS 104, Insulin prom inh cell count 94 and HSV augment primary fold 0.87.

Among those listed so far, these have fluorine.
Cc1c(NC(=O)c2cnn3c2NC(c2ccco2)CC3C(F)(F)F)c(=O)n(-c2ccccc2)n1C (configuration not stated) was read as GALR2 ag -2.8, Insulin prom inh -74, HSV augment inactive, PKD1 kinase inh -3, RGS16-Gao HTS 105, Insulin prom inh cell count 106 and HSV augment primary fold 0.91.
For Fc1ccc(NC2=NCCCCC2)cc1 the results were Insulin prom inh 27, HSV augment inactive, PKD1 kinase inh -1, RGS16-Gao HTS 42, Insulin prom inh cell count 61 and HSV augment primary fold 1.
For O=C(c1ccc2c(c1)N(Cc1ccccc1F)C(=O)c1ccccc1S2)N1CCOCC1 the results were HSV augment inactive, RGS16-Gao HTS 89 and HSV augment primary fold 0.96.
`O=C(Nc1nsc(-c2ccccc2)n1)c1ccc(F)cc1` gave Insulin prom inh 15, HSV augment inactive, PKD1 kinase inh 6, RGS16-Gao HTS 96, Insulin prom inh cell count 91 and HSV augment primary fold 1.
For COc1ccc(C2CC(c3cc(Br)ccc3F)n3nnnc3N2)cc1 (configuration not stated) the results were GALR2 ag -1.7, Insulin prom inh -7, HSV augment inactive, PKD1 kinase inh -6, RGS16-Gao HTS 95, Insulin prom inh cell count 120 and HSV augment primary fold 0.89.
O=C(CO)N/N=C/c1ccccc1F was read as GALR2 ag -1.7, HSV augment inactive, PKD1 kinase inh 9, RGS16-Gao HTS 81 and HSV augment primary fold 0.82.
